Screens as filed in PubChem BioAssay.
HIV Env fusion – blocks HIV Env-driven cell-cell fusion | HeLa-JRFL Env/CEM21 cell fusion, luciferase | inhibition, % at 12.3 µM | 1.1% of 360,000 active;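 active = mean replicate inhibition score of at least 50 and every replicate individually at or above 50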;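 also: 0% = plate neutral controls and 100% = maraviroc near 300 nM; one replicate is shown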
UUG fidelity – yeast start codon fidelity modulation; S. cerevisiae UUG-firefly luciferase reporter, luminescence/redox ratio; activity score, % at 18.7 µM; 0.13% of 350,000 active; AID 602363;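 active = replicate mean at a twofold rise or more, about +100% in these data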;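 also: firefly luciferase made from a UUG start codon reports start codon fidelity; reporter light over untreated wells divided by growth signal over untreated wells; some hits fall short of that in this replicate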
An asterisk follows results filed as active; [ ] = dose if it differs, or a comment. Not all compounds are listed; the hit share may differ from the screen's.

1	C[C@@H]1CCCCO[C@H](CN(C)Cc2ccc(C(=O)O)cc2)[C@@H](C)CN([C@H](C)CO)C(=O)c2cc(NC(=O)C3CCCCC3)ccc2O1
2	C[C@H](CO)N1C[C@H](C)[C@H](CN(C)Cc2ccc(C(=O)O)cc2)Oc2cc(/C=C/c3ccccc3)ccc2S1(=O)=O
3	C[C@@H]1CCCCO[C@H](CN(C)Cc2ccc(C(F)(F)F)cc2)[C@@H](C)CN([C@@H](C)CO)C(=O)c2cc(NC(=O)Nc3ccc4c(c3)OCO4)ccc2O1
4	CC(C)NC(=O)Nc1ccc2c(c1)C(=O)N([C@H](C)CO)C[C@H](C)[C@@H](CN(C)Cc1ccc(C(=O)O)cc1)OCCCC[C@@H](C)O2
5	C[C@H]1CCCCO[C@H](CN(C)C(=O)CCCN(C)C)[C@@H](C)CN([C@@H](C)CO)C(=O)c2cc(NS(=O)(=O)c3ccc(F)cc3)ccc2O1
6	O=C(N[C@H]1CC[C@@H](CCNS(=O)(=O)c2cccc(Cl)c2)O[C@@H]1CO)c1ccccc1

assay / entry	1	2	3	4	5	6
HIV Env fusion	-23[16.7 µM]	0[16.7 µM]	22[16.7 µM]	2[16.7 µM]	8[16.7 µM]	12[16.7 µM]
UUG fidelity	-1	1	4	-5	18	5

7	COc1ccc(NC(=O)Nc2ccc3c(c2)C(=O)N([C@H](C)CO)C[C@H](C)[C@@H](CN(C)C(=O)Nc2ccc(F)cc2)OCCCC[C@@H](C)O3)cc1
8	C[C@@H]1CCCCO[C@@H](CN(C)S(=O)(=O)c2cccs2)[C@@H](C)CN([C@H](C)CO)C(=O)c2cc(NC(=O)Cc3ccccc3)ccc2O1
9	C[C@H](CO)N1C[C@H](C)[C@H](CN(C)C(=O)Nc2ccc3c(c2)OCO3)Oc2ncc(-c3cncnc3)cc2C1=O
10	COC(=O)C[C@@H]1CC[C@H]2[C@H](COc3ccc(NC(=O)Nc4cccc(Cl)c4)cc3C(=O)N2C)O1
11	CC(C)NC(=O)N[C@@H]1CC[C@@H](CC(=O)NCc2ccc(Oc3ccccc3)cc2)O[C@@H]1CO
12	COc1ccc(CNC(=O)C[C@H]2C[C@H]3c4cc(NC(=O)CC5CC5)ccc4O[C@H]3[C@@H](CO)O2)cc1

assay / entry	7	8	9	10	11	12
HIV Env fusion	-46[16.7 µM]	-8[16.7 µM]	-17[16.7 µM]	-4[16.7 µM]	0[16.7 µM]	-21[16.7 µM]
UUG fidelity	15	4	-5	1	-6	-5

13	Cc1noc(C)c1NC(=O)N(C)C[C@@H]1Oc2ccc(NC(=O)NC(C)C)cc2C(=O)N([C@@H](C)CO)C[C@@H]1C
14	CNC[C@@H]1Oc2ccc(NC(=O)CCN3CCOCC3)cc2CC(=O)N([C@H](C)CO)C[C@@H]1C
15	C[C@H](CO)N1C[C@H](C)[C@H](CN(C)Cc2ccc3c(c2)OCO3)Oc2ccc(NS(C)(=O)=O)cc2CC1=O
16	Cc1noc(C)c1NC(=O)N[C@H]1C=C[C@H](CC(=O)NCc2ccc(Cl)c(Cl)c2)O[C@@H]1CO
17	C[C@@H]1CN([C@@H](C)CO)C(=O)c2cc(NS(=O)(=O)c3cccs3)ccc2O[C@@H]1CN(C)C(=O)Nc1ccccc1
18	COc1cccc(NC(=O)N2C[C@@H](O)COC[C@H]3O[C@H](CC(=O)N(C)C)CC[C@@H]32)c1

assay / entry	13	14	15	16	17	18
HIV Env fusion	5[16.7 µM]	6[16.7 µM]	9[16.7 µM]	13[16.7 µM]	2[16.7 µM]	-4[16.7 µM]
UUG fidelity	-18	2	-4	-2	-3	4

19	C[C@@H]1CCCCO[C@H](CN(C)Cc2ccc(C(F)(F)F)cc2)[C@@H](C)CN([C@H](C)CO)C(=O)c2cc(NC(=O)Nc3cccc4ccccc34)ccc2O1
20	CCC(=O)N1C[C@H](C)[C@@H](OC)CN(C)C(=O)c2cc(NC(=O)c3cnccn3)ccc2OC[C@@H]1C
21	C[C@@H]1CN([C@H](C)CO)C(=O)c2cc(-c3ccc(F)cc3)cnc2O[C@@H]1CN(C)CC1CCOCC1
22	C[C@H](CO)N1C[C@H](C)[C@H](CN(C)C(=O)Nc2ccc(C(F)(F)F)cc2)Oc2ccc(NC(=O)Nc3ccc(C(F)(F)F)cc3)cc2C1=O
23	COc1ccccc1CNC(=O)C[C@@H]1C[C@@H]2c3cc(NC(=O)NC4CCCC4)ccc3O[C@@H]2[C@@H](CO)O1
24	C[C@@H]1CN([C@@H](C)CO)C(=O)c2cc(C3=CCCC3)cnc2O[C@@H]1CN(C)Cc1cccnc1

assay / entry	19	20	21	22	23	24
HIV Env fusion	33[16.7 µM]	-1[16.7 µM]	3[16.7 µM]	0[16.7 µM]	-2[16.7 µM]	-5[16.7 µM]
UUG fidelity	-11	10	-1	30	3	-9

25	COc1ccc(S(=O)(=O)N(C)C[C@H]2OCCCC[C@@H](C)Oc3ccc(NC(=O)Nc4cccc5ccccc45)cc3C(=O)N([C@H](C)CO)C[C@H]2C)cc1
26	COc1ccc(NC(=O)N(C)C[C@H]2Oc3cc(-c4ccncc4)ccc3S(=O)(=O)N([C@H](C)CO)C[C@@H]2C)cc1
27	COCC(=O)Nc1ccc2c(c1)C(=O)N(C)[C@@H]1CC[C@H](CC(=O)Nc3ccccc3)O[C@H]1CO2
28	O=C(C[C@H]1CC[C@H](NC(=O)CCN2CCCCC2)[C@H](CO)O1)NCc1ccc(Cl)c(Cl)c1
29	O=C(C[C@@H]1CC[C@@H](NC(=O)c2ccccc2)[C@H](CO)O1)NCc1ccc(Oc2ccccc2)cc1
30	CCCN(C)C[C@H]1Oc2cc(-c3ccc(C)cc3)ccc2S(=O)(=O)N([C@H](C)CO)C[C@H]1C

assay / entry	25	26	27	28	29	30
HIV Env fusion	-22[16.7 µM]	-23[16.7 µM]	7[16.7 µM]	-1[16.7 µM]	32[16.7 µM]	2[16.7 µM]
UUG fidelity	-7	-9	-6	2	-11	-2

31	O=C(C[C@@H]1C[C@@H]2c3cc(NC(=O)CC4CC4)ccc3O[C@@H]2[C@H](CO)O1)NCc1ccc(-c2ccccc2)cc1
32	CNC[C@@H]1Oc2cc(C#Cc3cccnc3)ccc2S(=O)(=O)N([C@@H](C)CO)C[C@@H]1C
33	C[C@@H]1CN([C@H](C)CO)C(=O)c2cc(NC(=O)CCC(F)(F)F)ccc2O[C@@H](C)CCCCO[C@@H]1CN(C)Cc1ccc(C(=O)O)cc1
34	C[C@@H]1CN([C@H](C)CO)C(=O)Cc2cc(NC(=O)Cc3cn(C)c4ccccc34)ccc2O[C@H]1CN(C)Cc1ccc(C(=O)Nc2ccccc2N)cc1
35	COc1ccc(CN2C[C@H](O)COC[C@@H]3O[C@H](CC(=O)NCCN4CCCC4)CC[C@H]32)cc1
36	Cc1ccc(S(=O)(=O)NCC[C@H]2CC[C@@H](NC(=O)c3ccccn3)[C@@H](CO)O2)cc1

assay / entry	31	32	33	34	35	36
HIV Env fusion	-15[16.7 µM]	-25[16.7 µM]	-6[16.7 µM]	-1[16.7 µM]	-10[16.7 µM]	4[16.7 µM]
UUG fidelity	0	-5	-2	21	-10	-1

37	CCCNC(=O)Nc1ccc2c(c1)OC[C@H](C)N(CC1CCCC1)C[C@@H](C)[C@@H](OC)CN(C)C2=O
38	C[C@H](CO)N1C[C@H](C)[C@@H](CN(C)Cc2ccccc2F)Oc2cc(C#CCN(C)C)ccc2S1(=O)=O
39	Cc1ccccc1S(=O)(=O)NCC[C@H]1CC[C@H](NC(=O)Nc2cccc(Cl)c2)[C@@H](CO)O1
40	Cc1ccc(S(=O)(=O)N[C@H]2CC[C@@H](CCNC(=O)C3CCCCC3)O[C@H]2CO)cc1
41	CNC(=O)C[C@@H]1CC[C@@H]2[C@H](COc3ccc(NC(=O)c4ccc5c(c4)OCO5)cc3C(=O)N2C)O1
42	C[C@@H]1CN([C@H](C)CO)C(=O)c2cc(NC(=O)C3CCCCC3)ccc2O[C@@H]1CN(C)C(=O)Nc1ccc(F)cc1

assay / entry	37	38	39	40	41	42
HIV Env fusion	12[16.7 µM]	-7[16.7 µM]	-36[16.7 µM]	-9[16.7 µM]	16[16.7 µM]	5[16.7 µM]
UUG fidelity	-8	2	-7	-3	7	13

43	CCC(=O)N(C)C[C@@H]1Oc2cc(-c3cncnc3)ccc2S(=O)(=O)N([C@@H](C)CO)C[C@@H]1C
44	O=C(C[C@@H]1C[C@H]2c3cc(NS(=O)(=O)c4ccc(F)cc4)ccc3O[C@H]2[C@H](CO)O1)NCc1ccc(-c2ccccc2)cc1
45	C[C@@H]1CN([C@@H](C)CO)C(=O)c2cccc(N(C)C)c2O[C@@H]1CN(C)Cc1ccc(Cl)c(Cl)c1
46	COc1ccc(S(=O)(=O)Nc2ccc3c(c2)CC(=O)N([C@H](C)CO)C[C@@H](C)[C@H](CN(C)S(=O)(=O)c2ccccc2)O3)cc1
47	CC(C)C#Cc1ccc([C@@H]2[C@@H](C#N)N(C(=O)C3CCC3)[C@@H]2CO)cc1
48	CNC[C@@H]1OCCCC[C@H](C)Oc2ccc(NC(=O)Nc3c(C)noc3C)cc2C(=O)N([C@@H](C)CO)C[C@@H]1C

assay / entry	43	44	45	46	47	48
HIV Env fusion	-3[16.7 µM]	-171[16.7 µM]	11[16.7 µM]	3[16.7 µM]	-5[16.7 µM]	-17[16.7 µM]
UUG fidelity	6	-12	-2	-5	-6	11

Three entries from above, as labelled records.
#46 COc1ccc(S(=O)(=O)Nc2ccc3c(c2)CC(=O)N([C@H](C)CO)C[C@@H](C)[C@H](CN(C)S(=O)(=O)c2ccccc2)O3)cc1
  HIV Env fusion: 3[16.7 µM]
  UUG fidelity: -5
#45 C[C@@H]1CN([C@@H](C)CO)C(=O)c2cccc(N(C)C)c2O[C@@H]1CN(C)Cc1ccc(Cl)c(Cl)c1
  HIV Env fusion: 11[16.7 µM]
  UUG fidelity: -2
#43 CCC(=O)N(C)C[C@@H]1Oc2cc(-c3cncnc3)ccc2S(=O)(=O)N([C@@H](C)CO)C[C@@H]1C
  HIV Env fusion: -3[16.7 µM]
  UUG fidelity: 6

(cont.)
49	COc1ccc(NC(=O)Nc2ccc3c(c2)C(=O)N([C@@H](C)CO)C[C@H](C)[C@@H](CN(C)Cc2ccc(C(F)(F)F)cc2)OCCCC[C@H](C)O3)cc1
50	C[C@@H]1CN([C@H](C)CO)C(=O)Cc2cc(NC(=O)Cn3cnnn3)ccc2O[C@@H]1CN(C)CC1CCCCC1
51	CCCNC(=O)N(C)C[C@H]1Oc2ncc(C#CCc3ccccc3)cc2C(=O)N([C@@H](C)CO)C[C@H]1C
52	COc1ccc(NC(=O)N(C)C[C@H]2Oc3ccc(NS(=O)(=O)c4cccs4)cc3CC(=O)N([C@@H](C)CO)C[C@H]2C)cc1
53	C[C@@H]1CCCCO[C@@H](CN(C)C)[C@H](C)CN([C@@H](C)CO)C(=O)c2cc(NC(=O)Nc3ccc(C(F)(F)F)cc3)ccc2O1
54	C[C@@H]1CN([C@H](C)CO)C(=O)Cc2cc(NS(=O)(=O)c3ccc(Cl)cc3)ccc2O[C@@H]1CN(C)Cc1ccc(Oc2ccccc2)cc1

assay / entry	49	50	51	52	53	54
HIV Env fusion	28[16.7 µM]	-30[16.7 µM]	5[16.7 µM]	1[16.7 µM]	-1[16.7 µM]	6[16.7 µM]
UUG fidelity	7	1	11	-5	3	12

55	C[C@@H]1CCCCO[C@H](CN(C)Cc2ccccc2)[C@@H](C)CN([C@@H](C)CO)C(=O)c2cc(NS(=O)(=O)c3cccs3)ccc2O1
56	Cc1ccc(S(=O)(=O)Nc2ccc3c(c2)C(=O)N([C@@H](C)CO)C[C@@H](C)[C@@H](CN(C)C(=O)Nc2cccc4ccccc24)O3)cc1
57	CNC[C@H]1OCCCC[C@@H](C)Oc2ccc(NS(=O)(=O)c3ccc(C)cc3)cc2C(=O)N([C@@H](C)CO)C[C@H]1C
58	O=C(C[C@@H]1CC[C@@H](NS(=O)(=O)c2ccccc2)[C@H](CO)O1)NCCN1CCCCC1
59	C[C@H](CO)N1C[C@H](C)[C@H](CN(C)S(C)(=O)=O)Oc2ncc(C#Cc3ccccc3)cc2C1=O
60	C[C@H](O)C#Cc1cnc2c(c1)C(=O)N([C@H](C)CO)C[C@H](C)[C@@H](CN(C)C(=O)Cc1ccccn1)O2

assay / entry	55	56	57	58	59	60
HIV Env fusion	-56[16.7 µM]	5[16.7 µM]	-8[16.7 µM]	-2[16.7 µM]	11[16.7 µM]	-5[16.7 µM]
UUG fidelity	3	-9	22	-18	11	-21

61	O=C(Cc1ccccn1)NCC[C@H]1CC[C@H](NC(=O)Nc2ccc(C(F)(F)F)cc2)[C@H](CO)O1
62	CN(C)C(=O)C[C@H]1CC[C@H]2[C@H](COc3ccc(NC(=O)C4CCCCC4)cc3C(=O)N2C)O1
63	CCC(=O)N(C)C[C@H]1Oc2cc(-c3ccccc3C)ccc2S(=O)(=O)N([C@@H](C)CO)C[C@@H]1C
64	CNC[C@@H]1OCCCC[C@@H](C)Oc2ccc(NS(=O)(=O)c3ccccc3)cc2C(=O)N([C@H](C)CO)C[C@@H]1C
65	COc1ccc(NC(=O)N(C)C[C@@H]2Oc3ccc(NC(=O)Nc4cccc5ccccc45)cc3CC(=O)N([C@@H](C)CO)C[C@H]2C)cc1
66	C[C@@H]1CN([C@H](C)CO)C(=O)c2cccc(NC(=O)C3CC3)c2O[C@@H]1CN(C)S(=O)(=O)c1ccc(F)cc1

assay / entry	61	62	63	64	65	66
HIV Env fusion	-6[16.7 µM]	10[16.7 µM]	21[16.7 µM]	3[16.7 µM]	1[16.7 µM]	-8[16.7 µM]
UUG fidelity	1	7	7	11	0	-7
